VACV Venus inh = vaccinia inhibition (Venus reporter). Vaccinia virus Venus reporter expression, fluorescence. Potency, µM (top dose mostly 36.5 µM), for inactives: top-dose activity change, negative = inhibition, usual class: inhibitors. 330,000 compounds, 0.46% hits. AID 720580; active means well fitted inhibition curve with a large enough effect; inconclusive means small, poorly fitted or top-dose-only effect; inactive means no such curve, though single readings can be large or run the other way; tested in A549 cells; further: nearly all actives have a fitted effect of over 30% in size; inactives centre near -10
VACV mCherry inh = vaccinia inhibition (mCherry reporter); Vaccinia virus mCherry reporter infection, fluorescence; about a quarter of the inactives have no number; Potency, µM (doses to about 36.5 µM), inactives show top-dose activity change, negative = inhibition, usual class: inhibitors; 310,000 compounds, 0.63% hits; active = well fitted inhibition curve with a large enough effect; inconclusive = small, poorly fitted or top-dose-only effect; inactive = no such curve, though single readings can be large or run the other way; tested in A549 cells; further: nearly all actives have a fitted effect of over 35% in size; inactives centre near -10
An asterisk follows results filed as active; i = inactive; ? = inconclusive; / = no result given; [ ] = another dose, or the depositor's remark. On the % scale 0 is the no-effect control and ±100 the full control effect; potency means the concentration at half of the fitted maximal effect.

SMILES | VACV Venus inh | VACV mCherry inh
CCN1C(=O)C(=Cc2ccc(C)s2)C(=O)N(CC)C1=S | 18% | 9%
Cn1c(N)c(C(=O)COC(=O)COc2ccccc2C#N)c(=O)n(C)c1=O | -7% | -22%
CCCCN1CNC(=S)N(c2ccc(C(=O)OCC)cc2)C1 | -26% | ?
CC(C)[C@H](NC(=O)c1ccccc1Cl)C(=O)OCC(=O)NC(=O)NC1CCCC1 | -9% | -12%
C=CCC[C@H](Cc1ccc(F)cc1)C(=O)OC[C@@H](Cc1c[nH]c2ccccc12)NC(=O)[C@@H](CC=C)CC(=O)N(CCO)Cc1ccccc1 | 11µM* | 13µM*
O=C(CSC1=NCCS1)N1CCN(c2ccc(Cl)cc2)CC1 | -29% | ?
Cc1nn(CCCC(=O)Nc2cc(C(F)(F)F)ccc2Cl)c(=O)c2c1sc1ccccc12 | -7% | -16%
CN(C(=O)COC(=O)CNC(=O)c1sc2ccccc2c1Cl)c1ccccc1 | 0% | -10%
COc1cccc(OC)c1CN1CCC2(CCC(CNC(=O)c3ccccc3)O2)CC1 (stereo not given) | 3% | -13%
O=C(Cn1cnc([N+](=O)[O-])c1)Nc1cc(Oc2ccc(Cl)cc2Cl)cc([N+](=O)[O-])c1 | ? | /
N#Cc1cnn2c(N)c(-c3ccc(Cl)cc3)cnc12 | -8% | -13%
Cc1cccc(NC(=O)CNC(=O)CN2CCN(C)CC2)c1C | -3% | -11%
Cc1ccc(C)c(N2CCN(S(=O)(=O)c3ccc4c(c3)NC(=O)CC(=O)N4)CC2)c1 | -24% | -9%
CSc1ccc(C#N)cc1NC(=O)c1ccccc1 | -2% | 3%
Cc1ccc(NC(=O)CC(C)S(=O)(=O)c2ccc3c(c2)NC(=O)CO3)c(C)c1 (stereo not given) | -9% | -6%

Copied from the list:
CN(C(=O)COC(=O)CNC(=O)c1sc2ccccc2c1Cl)c1ccccc1 in VACV Venus inh: 0%
N#Cc1cnn2c(N)c(-c3ccc(Cl)cc3)cnc12 in VACV Venus inh: -8%
CCCCN1CNC(=S)N(c2ccc(C(=O)OCC)cc2)C1 in VACV Venus inh: -26%
Cc1ccc(C)c(N2CCN(S(=O)(=O)c3ccc4c(c3)NC(=O)CC(=O)N4)CC2)c1 in VACV mCherry inh: -9%

Going on with the list:
SMILES | VACV Venus inh | VACV mCherry inh
Cc1ccc(S(=O)(=O)N2CCN(C(=O)CCCOc3ccc(Cl)cc3C)CC2)cc1 | ? | -9%
COC(=O)[C@@]12C[C@@H](CC(=O)NCc3ccc(C)o3)C(=O)N(Cc3ccco3)C1=CCC(C)(C)C2 | -11% | -12%
Cc1cc(OCCn2c(CCNC(=O)C3CCCCC3)nc3ccccc32)ccc1Cl | ? | i
COc1cc(NC(=O)c2cc([N+](=O)[O-])ccc2NC(=O)CNCc2ccccn2)cc(OC)c1 | -14% | -27%
CCCCc1ccc(S(=O)(=O)N2CCC3(CC2)OCCO3)cc1 | 0% | -10%
O=C1NC(=NCc2ccccc2)S/C1=C\c1ccccc1 | -24% | ?
CCCCNC(=O)C1CCC(Cn2c(=O)c3sccc3n(CC(=O)Nc3ccccc3)c2=O)CC1 (stereo not given) | -30% | ?
Cn1c(=O)c2c(nc(CN3CCC(C(N)=O)CC3)n2Cc2c(F)cccc2Cl)n(C)c1=O | -8% | -1%
O=C(NCc1ccccc1)c1ccc(N2CCC3(CC2)CC(c2ccccc2)=NO3)c([N+](=O)[O-])c1 | -14% | -7%
Cn1c(N)c(Sc2ccc([N+](=O)[O-])cc2)c(=O)n(C)c1=O | -2% | -2%
CC1=NNC(=O)/C1=C\c1cn(-c2ccccc2)nc1-c1ccc(Cl)cc1 | 8.9µM* | 10µM*
O=C(NCc1cccnc1)c1cc(S(=O)(=O)N2CCCC2)c(Cl)cc1Cl | -5% | 7%
Cc1cc(Br)cc(C)c1OCCCCN(C)C | -9% | -14%
COc1ccc(NC(=O)c2c(C)oc3ccc(O)c(CN4CCC(C)CC4)c23)cc1Cl | -6% | -20%
CCC1CN(C(=O)N2CCC(C(=O)NCCc3ccc(Cl)cc3)CC2)c2ccccc2O1 (stereo not given) | -19% | -9%

Seven entries picked at random from those above:
SMILES | VACV Venus inh | VACV mCherry inh
Cn1c(N)c(Sc2ccc([N+](=O)[O-])cc2)c(=O)n(C)c1=O | -2% | -2%
O=C(NCc1cccnc1)c1cc(S(=O)(=O)N2CCCC2)c(Cl)cc1Cl | -5% | 7%
Cn1c(=O)c2c(nc(CN3CCC(C(N)=O)CC3)n2Cc2c(F)cccc2Cl)n(C)c1=O | -8% | -1%
Cc1cc(Br)cc(C)c1OCCCCN(C)C | -9% | -14%
CCCCc1ccc(S(=O)(=O)N2CCC3(CC2)OCCO3)cc1 | 0% | -10%
Cc1ccc(S(=O)(=O)N2CCN(C(=O)CCCOc3ccc(Cl)cc3C)CC2)cc1 | ? | -9%
COc1cc(NC(=O)c2cc([N+](=O)[O-])ccc2NC(=O)CNCc2ccccn2)cc(OC)c1 | -14% | -27%

Continuation:
SMILES | VACV Venus inh | VACV mCherry inh
CCn1cc(S(=O)(=O)c2cccc(C)c2)c(=O)c2cc(F)c(N3CCCCC3C)cc21 (stereo not given) | -11% | i
COc1ccc(CCNS(=O)(=O)c2ccc(N3CCCC3=O)cc2)cc1 | -12% | -12%
COc1ccc(-c2nc3n(n2)C(c2cccnc2)C(C(N)=O)=C(C)N3)cc1 (stereo not given) | -13% | -13%
COC(=O)c1c(C)nn(-c2ccc(F)c(Cl)c2)c1-c1cc(C)on1 | -12% | -2%
Cc1cc(C)n(-c2ccc(C(=O)Nc3cc(S(=O)(=O)N(C)C)ccc3Cl)cc2)n1 | -15% | ?
C[C@H](NC(=O)NCCc1ccccc1)C(=O)O | -11% | /
COc1ccc(NC(=S)N2CCN(c3ccc4c(c3)C3CCN(C(=O)OCc5ccccc5)C4C3)CC2)c(OC)c1 (stereo not given) | -13% | -3%
COc1cccc(NC(=O)CSc2cc(C)c3ccccc3n2)c1 | -1% | -9%
Cn1c(N2CCOCC2)cc(=O)n(C)c1=O | 2% | i
CN(C)c1ccc(/C=C/c2ccnc3ccccc23)cc1Cl | -18% | -4%
CC1(C(=O)NS(=O)(=O)c2ccc(Cl)cc2)CCN1C(=O)CCC1CCCC1 (stereo not given) | 7% | 12%
COc1ccc(CNCc2c(F)cccc2F)cc1OC | 3% | i
CC(=O)Nc1ccc(S(=O)(=O)NC(CC(=O)NCCC2=CCCCC2)C(C)C)cc1 (stereo not given) | -13% | -20%
Nc1cc(-c2ccco2)no1 | -3% | -11%
O=C1NC2(CCCCCC2)C(=O)N1CCS(=O)(=O)Oc1ccccc1 | 0% | i
O=C(CNc1cccc2ccccc12)c1ccc([N+](=O)[O-])cc1 | 1% | -2%
CCOC(=O)c1ccccc1NC(=O)COC(=O)CCC(=O)c1ccccc1 | -17% | -4%
COC(=O)c1ccc(C(=O)OC)c(NC(=S)N2CCN(C(=O)C3CCCO3)CC2)c1 (stereo not given) | 0%[7.34 µM] | i[7.34 µM]
Cn1cc(C2NC(=O)c3ccccc3N2)c2ccccc21 (stereo not given) | ? | ?
CCCCSCCCNC(=O)CN1C(=O)c2cccnc2Oc2ccc(Cl)cc21 | -1% | -5%
O=C(Nc1cc(Cl)ccc1Cl)c1ccc2c(c1)N(Cc1cccc(Cl)c1)C(=O)c1ccccc1S2=O (stereo not given) | -2% | -14%
CC(C)(C)c1ccc(NC(=O)CON=C(N)c2ccccc2)cc1 | -7% | -6%
COC(=O)CSCC(=O)Nc1nnc(-c2cccc(C)c2)s1 | -4% | i
Cc1ccc(/C=N/n2c(C3CCCCC3)n[nH]c2=S)cc1 | -21% | i
COc1ccc(OCC2c3cc(OC)c(OC)cc3CCN2C(=O)C(C)C)cc1 (stereo not given) | -9% | -17%
CN(/N=C\c1ccc(O)c(O)c1)c1nc(-c2ccccc2)cc(-c2ccccc2)n1 | ? | ?
CCN1C(=O)NC(c2ccc(Cl)cc2)C2=C1CCCC2=O (stereo not given) | -11% | -7%
CC(NC1c2ccccc2-c2ccccc21)c1ccccc1 (stereo not given) | -3% | ?
Cc1ccc(S(=O)(=O)N(C)CC(=O)OCC(=O)N2CC(=O)Nc3ccccc32)cc1 | -10% | i
CC1CC(=O)N(CC(=O)NCc2ccccc2)c2ccccc2S1(=O)=O (stereo not given) | -14% | -4%
CCOC(=O)C1=C(CS(=O)(=O)c2ccccc2)NC(=O)NC1c1ccc(OC)c(OC)c1 (stereo not given) | 0%[7.34 µM] | i[7.34 µM]
COc1ccc(-n2c(CNCCc3ccc(C)cc3)nc3ccccc3c2=O)cc1 | -18% | -4%
CCCCNC(=O)CCCCCn1c(=O)[nH]c2cc(C(=O)OC)ccc2c1=O | -20% | -9%
Cc1c(C(=O)Nc2ccc(Br)cc2)cnn1C | -2% | -8%
COC(=O)C1C(O)CC2CCC1N2C (stereo not given) | -8% | i
CC(C)(C)C(=O)CSc1nnc(-c2cccs2)n1CC1CCCO1 (stereo not given) | -9% | /
CC1(C(=O)NC2CCCC2)CCN1C(=O)Cc1ccc(-c2ccccc2)cc1 (stereo not given) | -13% | 7%
COc1ccccc1OC(=O)CN1C(=O)c2ccccc2C1=O | -18% | /
CN(C(=O)CC(NC(=O)c1ccccc1Cl)c1ccccc1)c1ccccc1 (stereo not given) | -12% | -22%
Cc1ccc(C)c(NC(=O)Cn2cc(S(=O)(=O)Cc3cccc(Cl)c3)c3ccccc32)c1 | -4% | -15%
CCSc1nc(-c2ccccc2)nc2c1Cc1c(CO)cnc(C)c1O2 | -10% | -7%
CCn1cc(/C=N/NS(=O)(=O)c2ccc(C)cc2)c(C)n1 | -9% | -11%
CC1(C)CC(=O)C2=C(C1)N=C1SCCC(=O)N1C2c1ccc(C(F)(F)F)cc1 (stereo not given) | -11% | i
Cc1ccccc1C(=O)Nc1ccc(C(=O)N/N=C/c2ccncc2)cc1 | -9% | -3%
CSCCC(NS(=O)(=O)c1ccc(C)cc1)C(=O)N1CCCCCCC1 (stereo not given) | -7% | -20%
Cc1cnc(C(=O)OCc2ccc(COC(=O)c3cnc(C)cn3)cc2)cn1 | -3% | i
COc1cccc(NC(=O)c2ccc(NS(=O)(=O)c3cccs3)cc2)c1 | -20% | -24%
O=C(CN(C1CCCCC1)S(=O)(=O)c1ccc(F)cc1)NCCCO | -6% | -13%
O=C(c1coc2ccc(O)cc12)C1CC1 | -17% | -13%
Cc1ccc(-c2noc(=O)n2CC(=O)Nc2ccc(S(=O)(=O)NC3CC3)cc2)cc1 | -12% | -21%
Cc1ccccc1-c1nnc(Cc2ccccc2)o1 | -3% | -14%
Cc1cccc(-n2c(C)cc(C)c(C#N)c2=O)c1 | -10% | -2%
CCC(=O)c1ccc(N2CCN(C(=O)c3ccc(F)cc3)CC2)c(F)c1 | -13% | -11%
Cc1c(C(=O)N2CCCCCC2)sc2ncnc(NCC3CCCO3)c12 (stereo not given) | -12% | i
CSc1ncc2c(=O)[nH]c(-c3ccccc3)nc2n1 | 0% | i
CC(C)(C)C1CCNC(=O)CC1 (stereo not given) | -6% | i
C#CCN(C1CCCC1)S(=O)(=O)C=C | -70% | ?
Cc1ccc(NC(=O)c2cc3ccccc3o2)nc1 | -14% | -3%
COc1cc(NC(=O)COn2nnc3ccc(S(C)(=O)=O)cc32)cc(OC)c1 | -18% | -15%
O=C(NCN1CCc2ccccc2C1)c1cnccn1 | -7% | i

Other entries follow:
SMILES | VACV Venus inh | VACV mCherry inh
CCOc1ccc(C2NC(=O)NC(C)=C2C(=O)OC)cc1C (stereo not given) | ? | /
Nc1nc(N2CCOCC2)n[nH]1 | -12% | -14%
CCN(C(=O)Oc1ccccc1)c1ccc(C(O)(C(=O)OC)C(F)(F)F)cc1 (stereo not given) | -4% | -2%
O=C(c1cc(-c2ccc(O)cc2)on1)N1CCCc2ccccc21 | -18% | ?
COC(=O)Cc1ccc(OC(=O)CCS(=O)(=O)c2ccc(Cl)cc2)cc1 | -16% | i
COC(=O)c1cc(OC)c(OC)cc1NC(=S)N1CCN(C/C=C/c2ccccc2)CC1 | -13% | -23%
Cc1csc(NC(=O)CCN2C(=O)c3ccccc3S2(=O)=O)n1 | -4% | i
COc1ccc([N+](=O)[O-])cc1NC(=O)Nc1cccc(Cl)c1 | -26% | i
CN(c1cccnc1)c1ncnc2[nH]ncc12 | -11% | i
COc1cc2c(cc1OC)C(COc1ccc(C(C)C)cc1)N(C(=O)COc1ccccc1)CC2 (stereo not given) | -18% | -6%
NC(CO)c1csc(Nc2ccc(C(F)(F)F)cn2)n1 (stereo not given) | 2% | 38%[activator]
O=C(CSc1ccc(Br)cc1)Nc1ccccc1N1CCOCC1 | 2% | -18%
CCC(C(=O)Nc1cc(C(F)(F)F)ccc1Cl)n1nc(C)c2sc3ccccc3c2c1=O (stereo not given) | -16% | -19%
O=C(/C=C/c1ccc(Cl)cc1)NCc1cccs1 | -17% | i
CC(=O)Nc1sc(C)c(C)c1CN1CCN(S(=O)(=O)c2ccccc2)CC1 | -15% | -22%
COc1ccccc1NC(=O)c1ccc(NC(=O)c2cc3c(s2)CCC3)cc1 | -28% | -12%
CN(C)c1ccc(/C=N/NC(=O)CSc2ccccn2)cc1 | -9%[7.34 µM] | -8%[7.34 µM]
Cn1c(=O)n(C)c2cc(N3CCCCC3)c(NC(=O)c3cccc(Cl)c3)cc21 | -19% | i
Cc1cc(C)nc(SCc2nnc(SCC(=O)N3CCCc4ccccc43)o2)n1 | -12% | -19%
Cn1c(=O)oc2cc(S(=O)(=O)NC3CCCc4ccccc43)ccc21 (stereo not given) | 1% | -5%
COc1ccc(C(=O)NCCN2CCCC2)cc1 | -4% | i
